# Assay outcomes as filed in PubChem.
# 2A StopGo: lowers the luciferase signal of an FMDV 2A StopGo reporter; human cells with a luciferase reporter of 2A StopGo recoding; control for the full effect not named in the record; Potency, µM (doses to about 57.9 µM), for the others: top-dose signal change, negative = less light; actives 1.2% (n = 410,000); AID 1159524; active = well fitted falling curve with a large enough effect; inconclusive = small, poorly fitted or top-dose-only effect; inactive = no such curve, though single readings can be large or run the other way; tested in HEK293T cells; also: nearly all actives have a fitted effect of over 45% in size; luciferase light after 4 h
# RE007 growth inh: less growth of the S. pombe RE007 Vpr strain | S. pombe RE007 Vpr strain, BacTiter-Glo ATP luminescence, 24 h; control for the full effect not named in the record | actives 0.21% (n = 360,000) | Potency, µM (doses to about 92.2 µM), for inactives: top-dose activity change, negative = less growth | AID 651644; active = well fitted falling curve with a large enough effect; inconclusive = small, poorly fitted or top-dose-only effect; inactive = no such curve, though single readings can be large or run the other way;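 also: nearly all actives have a fitted effect of over 50% in size; the assay follows cell death caused by Vpr and the record does not say whether a fall means rescue or toxicity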
#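 Fission yeast RE007 carrying one integrated HIV-1 vpr copy, seeded at OD 0.01 in PMG+AL medium with 23 nL pinned compound. Grown 24 h at 30 degrees; viability read by BacTiter-Glo luminescence after 5 min.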
# Active calls of the source: *; ? = inconclusive; [ ] = remark or other dose. % is scaled to controls: 0 for no effect and ±100 for the full control effect; potency is read from the fitted curve at half-maximal effect. Not all compounds are listed; count on the stated rates, not on these rows.
SMILES,2A StopGo,RE007 growth inh
COC(=O)c1cccc(CN2C(=O)C(C)Sc3ccc(C(C)=O)cc32)c1 (stereo not given),-3.5%,-7.7%
O=C(NCCCN1CCOCC1)/C(=C/c1ccc(-c2cccc([N+](=O)[O-])c2)o1)NC(=O)c1ccccc1,-25.9%,0.9%
CCOC(=O)CCCCCNC(=O)c1ccc(F)cc1F,-11.6%,-6.0%
Cc1ccc(OCc2nc3ccccc3n2C(C(=O)NC(C)(C)C)c2ccncc2)cc1 (stereo not given),4.5%,6.8%
COc1ccc(S(=O)(=O)N2CCOCC2)cc1NC(=O)Cc1ccc(F)cc1,-0.8%,-4.5%
CC1(C(=O)NCc2ccco2)CCN1C(=O)C1(c2ccccc2)CC1 (stereo not given),-14.2%,-14.3%[18.4 µM]
O=C(/C=C/c1cccs1)N1CCC2(CC1)Oc1ccc(Cl)cc1C(=O)C21CC(c2ccc(Cl)cc2)=NO1 (stereo not given),-8.4%,3.5%
CSc1ccc(NC(=O)C2(C)CCN2C(=O)C2(c3ccccc3)CC2)cc1 (stereo not given),?,-10.8%
COC(=O)C1=C(c2ccc(OCc3ccccc3)cc2)C[C@@H]2CC[C@H]1N2C(=O)NCc1cccc(F)c1,?,-4.6%
Cc1ccc(C)c(C(O)c2ncc(-c3cccc(F)c3)[nH]2)c1 (stereo not given),37.8%[activator],-9.9%
CCCCCCCCCc1conc1C(=O)/C=C/c1ccco1,-7.8%,0.0%
Oc1ccc(C=NNC(=S)Nc2ccccc2)nc1,42.9%[activator],?
CC(=O)O[C@H]1CC[C@@]2(C)C(=CC[C@@H]3[C@@H]2CC[C@]2(C)C(=O)CC[C@@H]32)C1,-26.4%,-4.3%
CC(C)(C)C(C(=O)NCc1ccccc1)N1CCN(C(=O)C2CCCO2)CC1 (stereo not given),-17.9%,6.9%
O=C(NCCc1ccccc1)c1ccc(-c2cccnc2)c2ccoc12,15.7%,?
CCC(=O)N(C)C[C@@H]1Oc2cc(Br)ccc2S(=O)(=O)N([C@@H](C)CO)C[C@@H]1C,?,0.0%
Cc1ccc(S(=O)(=O)N(C)C)cc1NC(=O)COC(=O)c1cccs1,-14.5%,-7.2%
COC(=O)C[C@@H]1C=C[C@@H](NC(=O)C2CCC2)[C@@H](CO)O1,-5.0%,10.4%
Cc1cccc(C)c1-n1nnnc1C1(C)CCC(=O)N1C1CC1 (stereo not given),3.8%,18.5%
CCc1nc2ccc(C(=O)NCCC(C)C)cn2c1N(C)Cc1ccc(OC)cc1,-9.4%,2.7%
OC(c1ccc(Cl)c(F)c1)c1ncc(-c2ccccc2F)[nH]1 (stereo not given),67.4%[activator],?
CN1CCN(C2CN(Cc3cn(Cc4ccc(Cl)cc4)nn3)S(=O)(=O)C2)CC1 (stereo not given),-23.7%,-16.3%
COc1cccc(-c2cnc3c(NC=O)cc(-c4ccccc4)cn23)c1,-23.7%,21.0%[18.4 µM]
O=C(C(=O)N1CCN(c2ccccc2)CC1)c1cccc(Br)c1,-15.0%,1.4%
CC1(Cc2ccccc2Cl)C(=O)Nc2cc(-c3ccccc3Cl)ccc21 (stereo not given),-24.3%,10.8%

# Compounds shown so far with a tert-butyl group, in the order listed:
SMILES,2A StopGo,RE007 growth inh
Cc1ccc(OCc2nc3ccccc3n2C(C(=O)NC(C)(C)C)c2ccncc2)cc1 (stereo not given),4.5%,6.8%
CC(C)(C)C(C(=O)NCc1ccccc1)N1CCN(C(=O)C2CCCO2)CC1 (stereo not given),-17.9%,6.9%

# (more compounds)
SMILES,2A StopGo,RE007 growth inh
CCCC(=O)Nc1nnc(SCC(=O)Nc2ccc(OCC)cc2)s1,-12.1%,-3.6%
O=C(C[C@H]1C=C[C@H](NC(=O)Nc2ccccc2F)[C@@H](CO)O1)NCc1ccc(-c2ccccc2)cc1,-2.2%,0.2%
COc1ccc(CCNC(=O)c2cc3ccc(Cl)cc3nc2N)cc1,?,-18.2%
CNC(=O)C1(C)Cc2c(-c3ccc(NC(C)=O)cc3)ccnc2O1 (stereo not given),-7.6%,-6.0%[18.4 µM]
CC(=O)Nc1ccccc1-c1cccc2nccn12,-17.8%,-11.2%
COc1ccc(CNC(=O)Nc2nc(C(N)CCc3ccccc3)cs2)cc1 (stereo not given),-10.8%,1.2%[18.4 µM]
Cc1ccc2nc(-c3cccc(Br)c3)c(Cc3cccc(Cl)c3)n2c1,15.5%,?
CC(C)C[C@@H](COCc1ccc(Cl)cc1)N1CCN(C(=O)c2ccc(C(F)(F)F)cc2)CCC1=O,-20.3%,-5.2%
C[C@@H]1CN([C@@H](C)CO)S(=O)(=O)c2ccc(Br)cc2O[C@@H]1CN(C)C(=O)NC1CCCCC1,-8.5%,13.2%
COC(=O)c1c(NC(=O)C2COc3ccccc3O2)sc2c1CCN(C(=O)OC)C2 (stereo not given),?,6.8%
COc1ccc(-c2c(C(=O)c3ccccc3)[nH]c(N)c2C(=O)c2ccccc2)cc1OC,-22.3%,13.6%
COc1ccc(N=C2SCC(=O)N2C)cc1,1.3%,0.9%
N#Cc1ccc(C(C(=O)NC2CCCCC2)n2c(=O)c(-c3ccco3)nc3ccccc32)cc1 (stereo not given),-14.9%,-1.0%
CC1(C(=O)NS(=O)(=O)c2cccc(C#N)c2)CCN1C(=O)C1CCCCC1 (stereo not given),-6.9%,-7.5%
Cn1cc(-c2coc3c(C(=O)NCc4ccco4)cccc23)cn1,51.4%[activator],-23.1%
COCC(=O)Oc1cc(-c2ccc(C)cc2C)c(OC(=O)COC)c(-c2ccc(C)cc2C)c1,-3.8%,-5.6%
CCOc1cc(/C=N/NC(=O)c2nnn(-c3nonc3N)c2C)ccc1OCc1ccc(C)cc1,-11.0%,0.7%
COc1ccc(NC(=O)c2cc(-c3sc(NC(=O)c4ccccc4)nc3C)n(CCO)n2)cc1,-9.9%,-4.0%
O=C(NCc1cccc(Cl)c1)c1ccc(-n2ccnc2)c2ccoc12,-9.3%,-2.2%
CCOC(=O)C[C@@H]1OC[C@H](Cc2ccccc2)N1S(=O)(=O)c1ccc(C)cc1,27.6%,-4.4%
COc1cc(OC)cc(-c2c(Sc3ccccc3)c3cc(-c4ccc(OC)c(OC)c4)ccc3n2C)c1,0.0%,-9.5%
O=C(Nc1cccc(S(=O)(=O)C(F)(F)F)c1)[C@@H]1O[C@H](CO)[C@@H](O)[C@H]1O,-8.4%,4.2%[18.4 µM]
COC(=O)C[C@H]1CC[C@H](NC(=O)Nc2ccccc2OC)[C@@H](CO)O1,-15.4%,3.7%
CCCCNC(=O)C1(C)CCCCN1C(=O)c1ccc(OC)c(C(F)(F)F)c1 (stereo not given),3.1%,2.2%
C[C@H](CO)N1C[C@H](C)[C@@H](CN(C)C(=O)Nc2ccccc2)Oc2cc(Br)ccc2S1(=O)=O,-6.9%,-14.2%

# Quoted at random: four records from the list.
SMILES,2A StopGo,RE007 growth inh
N#Cc1ccc(C(C(=O)NC2CCCCC2)n2c(=O)c(-c3ccco3)nc3ccccc32)cc1 (stereo not given),-14.9%,-1.0%
COc1ccc(N=C2SCC(=O)N2C)cc1,1.3%,0.9%
Oc1ccc(C=NNC(=S)Nc2ccccc2)nc1,42.9%[activator],?
O=C(NCCc1ccccc1)c1ccc(-c2cccnc2)c2ccoc12,15.7%,?

# Other results follow:
SMILES,2A StopGo,RE007 growth inh
CC[C@@H](C)[C@@H](CO)NC(=O)[C@H]1O[C@@H](n2cnc3c(N)ncnc32)[C@H](O)[C@@H]1O,-24.1%,10.6%
CCOC(=O)C1CCCN(C(=O)c2cc(-c3cccs3)oc2C)CC1 (stereo not given),-5.2%,-1.0%
COc1cc(-c2cc3nc(NCc4cccc(Cl)c4)ccn3n2)cc(OC)c1OC,?,127.7%
O=C(Nc1ccccc1)c1cc(C2COCCN2C(=O)c2ccccn2)on1 (stereo not given),-2.9%,3.0%
COc1ccc(C(O)c2ncc(-c3ccc(Cl)cc3)[nH]2)cc1 (stereo not given),0.8%,-25.9%[18.4 µM]
COc1ccc(C=C(C(=O)c2ccccc2)C(=O)c2ccccc2)cc1,5.6%,-5.4%[18.4 µM]
CC(C)C(=O)NCCc1nc(-c2ccccc2Cl)no1,-4.4%,-3.5%
O=C(NCC1CC1)C1(C(F)(F)F)CC(CCc2ccccc2)CCCO1 (stereo not given),-21.0%,-9.5%
Cc1cccc(C)c1NC(=O)C(c1cccc2ccccc12)n1c(=O)c(-c2ccco2)nc2ccccc21 (stereo not given),-17.9%,7.5%
CC(=O)Nc1nnc([N+](=O)[O-])s1,-19.0%,-28.3%
O=C(Nc1cccc(F)c1)c1cc(-c2ccco2)nc2ccccc12,-13.1%,-7.7%
Cc1cn([C@H]2C[C@H](O)[C@@H](CNCc3ccc(CN(C)S(C)(=O)=O)o3)O2)c(=O)[nH]c1=O,-8.7%,-12.7%
O=S(CC(O)c1ccccc1)c1ccccc1 (stereo not given),63.4%[activator],0.3%
Cc1onc(-c2c(F)cccc2Cl)c1C(=O)Nc1cc2cc([N+](=O)[O-])ccc2oc1=O,-18.6%,-20.7%[18.4 µM]
Cc1cccc(C)c1N1C(=O)c2ccccc2NC(=O)C1C(=O)NCCc1ccccc1F (stereo not given),-14.3%,2.9%
C[C@H](CO)N1C[C@H](C)[C@@H](CN(C)S(=O)(=O)c2ccc3c(c2)OCCCO3)OCc2cn(nn2)CCCC1=O,-11.3%,-10.5%
CCN(CC(=O)Nc1ccc(NC(C)=O)cc1)C(=O)C1CC(=O)N(c2ccc3c(c2)OCCO3)C1 (stereo not given),4.3%,-7.4%
CC1(c2nnnn2Cc2ccccc2)CCC(=O)N1CCOc1ccccc1 (stereo not given),-18.4%,7.6%
CN1CCN(C(=O)OC2CC3CC2[C@H]2CCCCN2C3=O)CC1 (stereo not given in full),-16.6%,1.9%
C=C1CC[C@H](O)C/C1=C/C=C1\CCC[C@]2(C)[C@@H]([C@H](C)/C=C/[C@H](C)C(C)C)CC[C@@H]12,-12.6%,7.3%[18.4 µM]
COc1cccc(CC(=O)Nc2ccc3c(c2)c(=O)n(C)n3-c2ccc(C(C)(C)C)cc2)c1,-29.0%,15.2%
CN(C)c1ccc(NC(=O)Nc2nnc([C@H]3C[C@H](O)[C@@H](CO)O3)s2)cc1,22.2%,6.0%
O=c1[nH]nc(N=Nc2c(O)[nH]c3ccc(F)cc23)c(=O)[nH]1,-24.1%,8.9%
C[C@@H]1CN([C@H](C)CO)C(=O)CCCn2cc(nn2)CO[C@H]1CN(C)S(=O)(=O)c1ccccc1,1.9%,-6.0%
CCC(CC)C(C(=O)NCc1ccccc1)N1CCN(C(=O)C2CCCO2)CC1 (stereo not given),-21.6%,-15.9%
# (continued)
SMILES,2A StopGo,RE007 growth inh
CCOC(=O)C1(C)CCCCN1C(=O)c1cccnc1 (stereo not given),-8.1%,13.4%
CN(CC(=O)Nc1cccc(F)c1)C(=O)C1CCC(C(=O)N(C)CC(=O)Nc2cccc(F)c2)CC1 (stereo not given),?,11.6%
CC(=O)NC(c1cccc(F)c1)c1nc(-c2cccc(C(F)(F)F)c2)cs1 (stereo not given),-11.6%,-5.2%
Cc1cc(C)cc(Cn2cc(CN3CC(N4CCN(Cc5ccccc5F)CC4)CS3(=O)=O)nn2)c1 (stereo not given),?,-15.1%
COc1cccc(CNc2nc3cc(-c4cccc(Cl)c4)sc3c(=O)n2C)c1OC,?,1.4%[18.4 µM]
COc1ccc2nc(Cl)c(C=O)c(N3CCOCC3)c2c1,46.0%[activator],-5.8%
Nc1nc2ccccc2n1S(=O)(=O)c1ccccc1,8.0%,-0.5%
COCCNC(=S)N1Cc2ccccc2-n2nncc2C1,6.4%,15.6%
CCCCCCCCN1C(=O)[C@H](CC(=O)NCC23CC4CC(CC(C4)C2)C3)C[C@@]2(C(=O)OCC)CCCC=C12,?,9.1%
Cn1c(-c2ccccc2)cc(=NNS(C)(=O)=O)c2cc(S(=O)(=O)O)ccc21,-8.2%,12.7%
C=C1CCN([C@@H](CC(C)C)C(=O)O)S(=O)(=O)c2ccccc21,-15.3%,0.1%
CC1(C)CC(=O)C=C(c2cccc(OC(=O)c3ccc(Br)cc3)c2)C1=O,0.0%,-7.3%
CS(=O)(=O)Nc1ccc(-c2cccc3nccn23)cc1,0.4%,3.1%[18.4 µM]
CCOC(=O)[C@]12CCCC=C1N(CCc1ccc(OC)c(OC)c1)C(=O)[C@H](CC(=O)N1CCN(C(=O)C3CC3)CC1)C2,-20.3%,-11.3%
S=C(Nc1ccccc1)Nc1ccccn1,50.6%[activator],-12.9%
Cc1ccc(S(=O)(=O)N2C[C@H]3N(C(=O)OC(C)C)N(C(=O)OC(C)C)C[C@H](OC(=O)NCc4ccccc4)[C@@]3(O)C2)cc1,?,-0.4%
COc1cc(OC)cc(C2=Cc3ccccc3C(CC(=O)c3ccco3)N2c2ccc(-c3ccc(C(N)=O)cc3)cc2)c1 (stereo not given),-23.5%,5.8%
CCc1ccccc1CC1CN(Cc2ccccc2)Cc2ccccc2N1c1ccc(OC)cc1 (stereo not given),-19.0%,0.9%
Cn1nc(SCc2ccccc2)c(=O)[nH]c1=O,-17.9%,-4.2%
Cc1ccc(CNC(=S)Nc2ccc3c(c2)c(=O)n(C)n3Cc2cccc(C(F)(F)F)c2)cc1,-14.6%,-8.0%[18.4 µM]
CC1(c2nc3ccccc3[nH]2)c2ccccc2C(=O)N1Cc1ccccn1 (stereo not given),-19.4%,6.0%
O=S(=O)(c1ccc(NC(=S)NC23CC4CC(CC(C4)C2)C3)cc1)N1CCCCC1,-28.3%,3.7%
Cc1c(C(=O)Nc2nccs2)oc2ccccc12,0.0%,-11.9%
